AID923: qHTS Assay for Allosteric/Competitive Inhibitors of Caspase-1: Spectroscopic Profiling in AFC Spectral Region. compound fluorescence, AFC spectral region (405/520 nm); almost no hit is shown here. 75,000 tested, 1.1% active. Potency, µM (series often up to 57.5 µM), for inactives: at the highest dose fluorescence increase, most hits filed as activators; active = well fitted activation curve with a large enough effect; inconclusive = small, poorly fitted or top-dose-only effect;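 also: potency is read from the fitted curve at half-maximal effect; 0% is about no effect; scaled to a free AFC standard on each plate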
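Compound autofluorescence profiled at 405 nm ex/520 nm em during kinetic caspase 1 run (50 nM enzyme, 5 uM Ac-WEHD-AFC, HEPES pH 7.5, 10 mM DTT). Titration up to 57 uM; baseline from regression intercept, normalized to AFC standard curve.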
Resorufin fluor: compound fluoresces in the resorufin spectral region; Compound fluorescence, resorufin region 547/598 nm, buffer; hits give high values; max dye-equivalent concentration, M; 59,000 tested, 0.04% active; active = above 10 nM dye equivalent; inconclusive = 1 to 10 nM; inactive = 1 nM or less; a few of its hits are not listed in these tables; also: highest value over a series up to 38 µM
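Tris 100 mM pH 8.0; compound added, 15 min RT; CCD imager read, ex 547 nm/em 598 nm; signal normalized to resorufin standard curve (six concentrations per plate) as dye-equivalent concentration.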
A488 autofl: A488 region autofluorescence; 59,000 tested, 0.1% active; max dye equivalency, M; AID 591; compound autofluorescence, A488 spectral region, dye equivalency; hits give high values; active = above 10 nM dye equivalent; inconclusive = 1 to 10 nM; inactive = 1 nM or less; about half of its hits are not listed in these tables;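 also: highest value over a series up to 38 µM; compound alone in buffer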
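Read-out: relative fluorescence at 480/540 nm, expressed as Alexa 488 dye-equivalent concentration from a six-point A488 standard included per plate. Conditions: 100 mM Tris, pH 8.0; 15 min incubation, room temperature.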
A647 autofl: compound autofluorescence in A647 spectral region; Compound fluorescence, A647 channel (570/671 nm), Tris buffer; max dye-equivalent concentration, M; 59,000 tested, under 10 active; AID 592; active means above 1 µM dye equivalent; inconclusive means 0.1 to 1 µM; inactive means 0.1 µM or less;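 also: values scaled relative to a standard on each plate; highest value over a series up to 38 µM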
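Spectral profiling of library compounds in pH 8.0 Tris: 15 min room-temperature incubation, single ex/em pair (570/671 nm), response normalized to Alexa 647 equivalents.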
TSHR ag: activates the human thyroid stimulating hormone receptor; AID 926; 73,000 tested, 0.48% active; Potency, µM (series often up to 57.1 µM), inactives show at the top dose activation, most hits filed as activators; HEK293-CNG-TSHR cells (CNG channel as cAMP sensor), membrane potential dye, cAMP; active = well fitted activation curve of enough size with the parental cells flat; inconclusive = any curve in the parental cells; inactive = parental cells flat and receptor cells flat or falling; also: potency is read from the fitted curve at half-maximal effect; % of control where 0% means no effect; weak receptor curves with flat parental cells got no call and are not listed
Target sequence (P16473 whole entry, looked up): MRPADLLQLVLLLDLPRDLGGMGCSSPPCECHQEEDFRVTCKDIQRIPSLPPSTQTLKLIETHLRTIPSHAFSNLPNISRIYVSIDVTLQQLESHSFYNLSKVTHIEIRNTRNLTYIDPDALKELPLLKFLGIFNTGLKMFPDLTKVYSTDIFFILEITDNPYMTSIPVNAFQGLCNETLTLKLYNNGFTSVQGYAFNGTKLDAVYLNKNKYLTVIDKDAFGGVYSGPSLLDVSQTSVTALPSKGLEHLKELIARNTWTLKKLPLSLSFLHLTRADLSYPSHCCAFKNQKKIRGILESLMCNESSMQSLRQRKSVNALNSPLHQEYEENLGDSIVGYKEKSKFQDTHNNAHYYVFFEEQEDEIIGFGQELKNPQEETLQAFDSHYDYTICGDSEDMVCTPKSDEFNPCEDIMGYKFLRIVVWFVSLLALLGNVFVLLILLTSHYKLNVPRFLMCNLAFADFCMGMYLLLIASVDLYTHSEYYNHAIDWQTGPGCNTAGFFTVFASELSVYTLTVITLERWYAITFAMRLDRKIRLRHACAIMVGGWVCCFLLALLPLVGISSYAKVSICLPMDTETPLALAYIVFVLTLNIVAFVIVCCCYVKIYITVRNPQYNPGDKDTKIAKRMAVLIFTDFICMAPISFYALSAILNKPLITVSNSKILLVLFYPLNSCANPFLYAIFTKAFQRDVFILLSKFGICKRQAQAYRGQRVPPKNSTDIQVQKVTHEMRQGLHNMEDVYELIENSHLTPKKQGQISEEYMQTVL
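HEK 293 cells stably expressing TSHR and a cAMP-gated CNG channel; parental CNG-only cells as counterscreen. Cells preloaded 60 min with membrane potential dye plus 100 uM RO 20-1724, then compound 30 min; fluorescence read at 590 nm.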
* marks the source's active call; other numbers are inactive results; i = inactive; ? = inconclusive; / = no result given; & = joins results of further samples; [ ] = dose if it differs, or a comment. This is a subset (hit frequency here may not be typical).

SMILES	AID923	Resorufin fluor	A488 autofl	A647 autofl	TSHR ag
CC(=O)N(C)c1ccc(NC(=O)c2ccco2)cc1	1.7%	i	i	1e-09	-9%
CS(=O)(=O)NCCC1=CCCCC1	-3.5%	i	i	3.6e-09	-12%
NC1=N[C@H](c2ccc(Cl)cc2)N(c2ccc(S(N)(=O)=O)cc2)C(N)=N1	-0.7%[11.5 µM]	i	i	4.7e-08	-3%[11.4 µM]
O=C(NCc1ccccc1)c1cc(-c2cccc(O)c2)on1	3.9%	/	/	/	4%
O=C(NCC1COc2ccccc2O1)C1C2C=CC3(CN(Cc4ccccc4Cl)C(=O)C13)O2 (stereo not drawn)	-0.7%	i	i	3e-08	5%
O=C(CN(Cc1ccco1)C(=O)CNS(=O)(=O)c1ccccc1)NC1CCCCC1	-0.3%	i	i	7.1e-09	7%
Cc1ccc(-n2nnc3c(=O)n(CC(=O)N4CCCC4)cnc32)cc1	-0.6%	i	i	2e-09	9%
CCOc1cc(CNC(=O)CN2C(=O)c3ccccc3S2(=O)=O)ccc1OC	2.2%	i	i	1.9e-08	5%
CC(O)Cc1nsc(NC(=O)c2ccc(Br)o2)n1 (stereo not drawn)	0.5%	i	i	1.7e-08	?
COc1cccc2cc(C(C)N(CCCN3CCOCC3)C(=O)Nc3ccc(Cl)cc3)oc12 (stereo not drawn)	-1.8%	i	i	8.1e-09	5%
COc1ccc(S(=O)(=O)NCC(=O)N(CC(=O)NCC2CCCO2)c2c(C)cccc2C)cc1 (stereo not drawn)	-0.5%	i	i	1e-09	4%
CC(=O)NCC(=O)OCC(=O)c1ccc(C)cc1	-0.7%	/	/	/	1%
O=C(c1cc(C(F)(F)F)cc(C(F)(F)F)c1)N1CCC[C@@]2(CCN(c3ccccn3)C2)C1	1.1%	i	i	1e-09	?
c1ccc(-n2nnnc2-n2ccnc2)cc1	-0.3%	/	/	/	-10%
Cc1cc2cc(CCNC(=O)c3ccc(Br)o3)c(=O)[nH]c2cc1C	-0.7%	i	i	9e-09	29%
O=C(CSc1ncn(-c2ccccc2)n1)Nc1nc2ccccc2s1	2.4%	i	i	1e-09	8%
COC(=O)c1cc2ccsc2n1CC(=O)N1CCCc2ccccc21	-0.7%	i	i	1.9e-08	?
CCC(C(=O)NC1CCCC1)N(Cc1ccco1)C(=O)Cn1nnc(-c2ccc(C)cc2)n1 (stereo not drawn)	-2.6%	i	i	2e-09	?
O=C(Cn1cccc1C(=O)c1ccccc1)NCc1ccco1	0.5%	i	i	2.6e-08	20%[11.4 µM]
COCCOC(=O)C(C#N)c1nc2ccccc2nc1N1CCCC1 (stereo not drawn)	16%	i	i	6.2e-09	7%

Brought forward from above: three entries, followed by the next part.
SMILES	AID923	Resorufin fluor	A488 autofl	A647 autofl	TSHR ag
CCC(C(=O)NC1CCCC1)N(Cc1ccco1)C(=O)Cn1nnc(-c2ccc(C)cc2)n1 (stereo not drawn)	-2.6%	i	i	2e-09	?
O=C(Cn1cccc1C(=O)c1ccccc1)NCc1ccco1	0.5%	i	i	2.6e-08	20%[11.4 µM]
COCCOC(=O)C(C#N)c1nc2ccccc2nc1N1CCCC1 (stereo not drawn)	16%	i	i	6.2e-09	7%
CS(=O)(=O)N(CC(N)=O)c1ccc2c(c1)OCO2	-1.5%	i	i	1e-09	2%
Cc1ccccc1Cn1cc(NC(=O)c2cc(-c3cccs3)on2)cn1	-1.6%	i	i	5.4e-09	17%
CCCc1oc2c(c(=O)c1CC)C(=O)CC(C)(C)C2	-2.4%	i	i	1.1e-08	0%
FC(F)(F)C1CC(c2cccs2)Nc2ncnn21 (stereo not drawn)	0.3%	/	/	/	-9%
COc1ccc(-c2nc(N)ncc2-c2csc(C)n2)c(O)c1	-0.9%	i	i	1.2e-08	-1%
O=S1(=O)CC(O)C(NCc2ccco2)C1 (stereo not drawn)	-0.5%	i	i	1e-09	-9%
CCCCCCN(C(=O)CCCCCN1C(=O)NC(c2ccc(C(C)(C)C)cc2)C(C(=O)OCc2ccccc2)=C1C)C(C(=O)NCCCC)c1ccc(OCC(=O)OC)c(C(=O)OC)c1 (stereo not drawn)	1.9%	/	/	/	0%
Cc1cc(Nc2c(C)cccc2C)n2nc(C)nc2n1	-1.3%	/	/	/	7%
CN(C)c1nc(N)nc(-c2nc3ccccc3s2)n1	-1.5%	i	i	3.9e-09	-2%
CC(=O)Nc1cccc(NC(=O)CSc2nnnn2C(C)C)c1	-1.0%	i	i	4.4e-08	-1%
Cn1c(=O)[nH]c(=O)c2c1nc(CN1CCN(c3ccccc3F)CC1)n2CC(N)=O	4.6%	/	/	/	?
COc1ccc(C(=O)N2CCC3(CC2)CN(c2ccncc2)C3)cc1	-0.1%	i	i	6.3e-09	3%
CCCCC(=O)Nc1ccc(NC(=O)c2cccnc2)cn1	0.3%	i	i	3.4e-09	-4%[11.4 µM]
NC(=O)c1sc2nc(N3CCCCC3)c3c(c2c1N)CCCC3	2.8%	/	/	/	-15%[11.4 µM]
O=C(C1CCN(c2nnnn2-c2ccccc2)CC1)N1CCN(c2ccccc2)CC1	1.2%	i	i	1e-09	3%
Cc1cc(C)cc(NC(=O)C2CCN(c3nccs3)CC2)c1	-1.7%	i	i	6.2e-09	3%
Cc1ccc(C)c(N2CCN(CC(=O)Nc3ccc4[nH]c(=O)[nH]c4c3)CC2)c1	-0.1%	/	/	/	19%
CN(C)S(=O)(=O)c1cc(S(=O)(=O)N(C)C)c(Cl)cc1N	-0.1%	/	/	/	-8%
Cc1ccc2c(c1)CCCN2C(=O)c1ccoc1C	1.0%	/	/	/	11%
Brc1cccc(C2CC(c3ccccc3)n3nnnc3N2)c1 (stereo not drawn)	1.1%	i	i	1.7e-08	11%

Only Resorufin fluor and AID923 (3 entries from above):
structure,Resorufin fluor,AID923
Cn1c(=O)[nH]c(=O)c2c1nc(CN1CCN(c3ccccc3F)CC1)n2CC(N)=O,/,4.6%
CCCCC(=O)Nc1ccc(NC(=O)c2cccnc2)cn1,i,0.3%
O=C(C1CCN(c2nnnn2-c2ccccc2)CC1)N1CCN(c2ccccc2)CC1,i,1.2%

Further results follow:
SMILES	AID923	Resorufin fluor	A488 autofl	A647 autofl	TSHR ag
COC(=O)N1CCC2(CC1)CN(c1ccncc1)C2	0.9%	i	i	4.8e-09	0%
C=CCn1c(COc2cccc3cccnc23)nnc1SCC(=O)O	0.4%	i	i	1.5e-08	0%
Cc1cc(C)nc(Nc2nc3ccccc3[nH]2)n1	0.3%	i	i	1e-09	0%
CCOC(=O)C1=C(C)NC(=O)NC1c1ccc(Br)s1 (stereo not drawn)	0.4%	/	/	/	1%
CCOC(=O)c1ccc(NS(=O)(=O)c2cc(-c3nnnn3C(C)C)ccc2OC)cc1	-2.6%	i	i	1e-09	-6%
CCOc1ccc(-c2nnn(CC(=O)N3CCN(c4ccc(OC)cc4)CC3)n2)cc1OCC	0.9%	i	i	1e-09	1%
COc1ccccc1Nc1nc(NCCO)c2ccccc2n1	0.0%	i	i	1.6e-08	?
CN(C)CCNC(=O)c1cc2cc(Br)ccc2oc1=O	-0.3%	/	/	/	7%
CCCn1c(=O)c2ccccc2n2c(SCCOc3ccccc3F)nnc12	-0.6%	i	i	1e-08	?
O=C(Cc1cccs1)N1CCN(c2nc(-c3ccc(Cl)cc3)cs2)CC1	3.7%	i	i	1.2e-08	6%

An excerpt taken from the entries so far, as a working copy:
SMILES	AID923	Resorufin fluor	A488 autofl	A647 autofl	TSHR ag
COC(=O)N1CCC2(CC1)CN(c1ccncc1)C2	0.9%	i	i	4.8e-09	0%
C=CCn1c(COc2cccc3cccnc23)nnc1SCC(=O)O	0.4%	i	i	1.5e-08	0%

The listing continues.
SMILES	AID923	Resorufin fluor	A488 autofl	A647 autofl	TSHR ag
Cc1cccc(C)c1NC(=O)CCCSc1nnc(-c2ccco2)o1	0.9%	i	i	3.7e-08	20%
Cc1cc(C)n(CCCNC(=O)c2ccc3c(c2)NC(=O)CS3)n1	0.1%	i	i	2.5e-08	-2%
CCOC(=O)N1CCC(NC(=O)CCc2c(C)nc3ncnn3c2C)CC1	-0.4%	i	i	1e-09	1%
COC(=O)C1CCN(c2cc(=O)n(-c3ccccc3Cl)c(=O)[nH]2)CC1	-1.0%	i	i	4.3e-09	25%
COC(=O)C1=C(C)N(Cc2ccccc2)c2c(C(=O)OC)c(C(=O)OC)c(C(=O)OC)c(=O)n2C1c1ccccc1 (stereo not drawn)	1.2%&1.1%[11.5 µM]	/	/	/	2%&3%[11.4 µM]
COc1ccc(N2C(=O)CC(n3c(CCCCO)nc4ccccc43)C2=O)cc1 (stereo not drawn)	-2.7%	i	i	3.7e-08	-1%
CCC1(C(=O)O)NC(c2cc(OC)ccc2O)C2C(=O)N(Cc3ccccc3)C(=O)C21 (stereo not drawn)	3.8%	/	/	/	4%
c1ccc(-n2ncc3c(N4CCCC4)ncnc32)cc1	/	i	i	1.6e-08	/
O=C(NCCN1CCCCC1)c1ccc(-n2c(=O)c(=O)[nH]c3ccccc32)cc1	-1.9%	/	/	/	-1%
CC(=O)N1CCCc2cc(S(=O)(=O)N(CC(C)C)CC(C)C)ccc21	1.4%	i	i	1.9e-09	13µM*
Cc1cccc(-c2c3c(=O)n(C)c(=O)n(C)c3c3c(C)cc(C)nn23)c1	-0.1%	i	i	3.2e-08	-4%
CCOC(=O)N1CCN(C2CC(=O)N(c3ccccc3)C2=O)CC1 (stereo not drawn)	-0.3%	/	/	/	8%
c1ccc(Nc2nc3ccccc3n3cnnc23)cc1	-3.6%	/	/	/	1%
Cc1cc(NC(=O)CSc2ncnc3ccccc23)no1	0.3%	/	/	/	-4%
Cc1cc(C)cc(OCC(O)CN2C(=O)NC(C)(C)C2=O)c1 (stereo not drawn)	-4.8%	/	/	/	?
O=C1CC(N2CCN(C/C=C/c3ccccc3)CC2)C(=O)N1CCc1ccccc1 (stereo not drawn)	1.2%	/	/	/	23%
c1ccc(-n2cnc3cc(NCc4ccncc4)ccc32)cc1	0.8%	i	i	4.9e-09	-8%
CSc1nnnn1-c1cccc(O)c1	4.9%	i	i	1e-09	11%
Cc1ccccc1CS(=O)(=O)Cc1ccc(C(=O)NCCCN2CCCC2=O)o1	0.2%	i	i	1e-09	?
O=C(O)C1CC(=O)N(c2ccc(F)cc2)C1 (stereo not drawn)	1.6%	i	i	4.2e-08	-1%
COc1ccc2nc(NC(=O)C3CCCN3S(=O)(=O)c3ccc(C)cc3)sc2c1 (stereo not drawn)	-2.0%	/	/	/	-5%
O=C(C1COc2ccccc2O1)N1CCN(Cc2ccc3c(c2)OCO3)CC1 (stereo not drawn)	5.4%	/	/	/	?
CC(=O)N(Cc1cc2ccc(C)c(C)c2n2nnnc12)C1CCCC1	0.1%	i	i	1.1e-08	13%
COC(=O)NC(CC(C)=O)c1ccc(F)cc1 (stereo not drawn)	6.0%[11.5 µM]	/	/	/	11%[11.4 µM]
Cc1ccc(Cl)cc1N1CCN(S(=O)(=O)c2ccc3c(c2)oc(=O)n3C)CC1	-0.5%	i	i	1.8e-08	22%
CCOC(=O)CCCNC(=O)CCNC(=O)c1ccc(OCC)cc1	-0.8%	/	/	/	4%
CN(C)c1nc(-c2cccc(NS(C)(=O)=O)c2)nc2ccccc12	3.9%	i	i	1e-09	?
COc1ccc(CCNC2CC(=O)N(CCc3ccc(OC)c(OC)c3)C2=O)cc1OC (stereo not drawn)	0.0%	/	/	/	-5%
COc1ccc(N2C(=O)CC(Sc3nc(C)c4c(n3)CCCC4)C2=O)cc1 (stereo not drawn)	1.7%	i	i	1e-09	6%
COc1ccc(CCNC(=O)CSc2nnc(Cc3csc(N)n3)n2C)cc1OC	-1.4%	i	i	4.1e-08	-2%
O=C(O)c1cccc(N2C(=O)c3cccnc3C2=O)c1	0.6%	i	i	1.9e-09	-3%

Screens from PubChem.
